Screening data from PubChem BioAssay.
gsp ag: qHTS for Agonist of gsp, the Etiologic Mutation Responsible for Fibrous Dysplasia/McCune-Albright Syndrome: qHTS; gsp mutant cells, cAMP HTRF, 30 min; control for the full effect not named in the record; Potency, µM (titrated, usually from 76.9 µM), without a hit: at the highest dose activation (cAMP increase), most hits filed as activators; hit rate 0.13% among 340,000; active = well fitted activation curve with a large enough effect; inconclusive = small, poorly fitted or top-dose-only effect, or another doubt; inactive = no such curve, though single readings can be large or run the other way; cell line not stated here;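 note: phosphodiesterase inhibitor Ro 20-1724 added with compounds to block cAMP breakdown; potency is the fitted concentration of half-maximal effect; nearly all actives have a fitted effect of over 60% in size; about a fifth of the inactives were tested at one dose only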
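Cells stably selected in G418 were plated at 2000/well, grown 16-24 hr, then given compounds in DMSO with the PDE inhibitor […] (300 uM solution added) for 30 min at 37C; cAMP was read by HTRF.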
gsp antag: qHTS for Antagonists of gsp, the Etiologic Mutation Responsible for Fibrous Dysplasia/McCune-Albright Syndrome: qHTS. gsp-mutant cells, cAMP HTRF, 30 min; control for the full effect not named in the record. Potency, µM (titrated, usually from 76.9 µM), inactives show top-dose activity change, negative = inhibition, most hits filed as inhibitors. hit rate 0.4% among 340,000. AID 624288, 2012; active = falling curve of any shape with a large fitted effect; inconclusive = falling curve, mostly with a smaller effect; inactive = flat or rising curve; cell line not stated here;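 note: intracellular cAMP measured with PDE inhibitor Ro 20-1724 present during compound exposure; potency is the fitted concentration of half-maximal effect; % is set by controls: 0 for no effect and ±100 for the full control effect; nearly all actives have a fitted effect of over 65% in size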
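Measurement of cellular cAMP by homogeneous time-resolved fluorescence following a 30 min compound exposure at 37C. The PDE inhibitor […] was present throughout; the assay buffer was DPBS with 0.05% BSA and 0.005% Tween 20.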
ClpP mod: qHTS Assay for Activators of ClpP; purified B. subtilis ClpP, FRET peptide cleavage, 20 min; Potency, µM (highest dose often 57.5 µM), for inactives: at the highest dose activity change, negative = active; hit rate 1.9% among 340,000; ATP-dependent Clp protease proteolytic subunit (Bacillus subtilis (strain 168)), P80244; AID 651965, 2013; active = well fitted falling curve with a large enough effect; inconclusive = small, poorly fitted or top-dose-only effect; inactive = no such curve, though single readings can be large or run the other way; note: potency is the fitted concentration of half-maximal effect; the source files actives as falling curves though it sought activators and does not explain the sign; nearly all actives have a fitted effect of over 65% in size; many hits overshoot -100%
Target sequence (P80244 whole entry, looked up): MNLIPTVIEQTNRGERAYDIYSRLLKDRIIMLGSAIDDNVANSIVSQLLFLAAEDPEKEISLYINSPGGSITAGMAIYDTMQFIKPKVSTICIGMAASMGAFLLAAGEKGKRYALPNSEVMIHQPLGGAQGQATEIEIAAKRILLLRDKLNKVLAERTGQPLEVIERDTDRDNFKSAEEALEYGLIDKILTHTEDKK
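Purified B. subtilis ClpP, 10 microg/mL final in Tris/HCl pH8 with KCl, BSA, glycerol and Tween-20, cleaved an Abz/nitrotyrosine-quenched decapeptide. Fluorescence (ex 320, em 430) was read at 0 and 20 min at room temperature. Delta was normalized to 5.8 microM ADEP and DMSO/no-enzyme controls.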
D2 agonist: Beta-Arrestin HTS for Positive Allosteric Modulators of the Human D2 Dopamine Receptor: Agonists; D(2) dopamine receptor (Homo sapiens), P14416; DiscoveRx PathHunter D2 beta-arrestin, luminescence, 90 min; 100% = 57 uM dopamine signal; activation, % (no concentration beside the values); hit rate 0.084% among 360,000; AID 624465, 2012; in the data active = activation above about 40%; inconclusive = about 15% to 40%; inactive = below about 15%; note: compound concentration not given in the record; the text of the record calls up to 30% inactive
Target sequence (P14416 whole entry, looked up): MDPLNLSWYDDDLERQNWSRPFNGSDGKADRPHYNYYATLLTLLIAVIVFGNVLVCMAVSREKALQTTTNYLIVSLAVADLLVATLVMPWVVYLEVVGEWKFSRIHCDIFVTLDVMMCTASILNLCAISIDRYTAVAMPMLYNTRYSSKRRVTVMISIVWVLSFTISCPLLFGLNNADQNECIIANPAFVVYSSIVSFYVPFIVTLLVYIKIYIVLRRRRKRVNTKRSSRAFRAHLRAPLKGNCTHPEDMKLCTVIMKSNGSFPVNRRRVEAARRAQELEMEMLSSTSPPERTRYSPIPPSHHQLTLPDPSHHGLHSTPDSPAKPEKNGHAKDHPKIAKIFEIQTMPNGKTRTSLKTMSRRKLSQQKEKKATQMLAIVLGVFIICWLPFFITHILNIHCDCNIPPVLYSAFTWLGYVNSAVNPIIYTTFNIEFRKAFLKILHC
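DiscoveRx PathHunter D2 beta-arrestin cells (2,100/well) attached overnight, then compound-stimulated 90 min at 37 C in HBSS/10 mM HEPES/0.1% Tween-20 buffer; beta-galactosidase complementation read by luminescence after 1 h at ambient temperature. Dopamine 57 uM final (EC100) as control.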
Menin-MLL FL inh: qHTS Assay for Inhibitors Targeting the Menin-MLL Interaction in MLL Related Leukemias: Competition With Fluorescein Labeled MLL-derived Peptide; Fluorescence polarization, fluorescein-MLL peptide displacement from menin; FP activity change, % at 61.4 µM; 290,000 tested, under 10 active; AID 1766, 2009; inconclusive = falling polarisation curve, or a change in total fluorescence; inactive = total fluorescence flat and polarisation flat or rising; no compound was filed as active; the % refers to the polarisation; negative = inhibition;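 note: % of control where 0% means no effect; inhibitors lower the polarisation; unlabelled MLL peptide was the positive control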
Sfp PPTase inh: qHTS Assay for Inhibitors of Bacillus subtilis Sfp phosphopantetheinyl transferase (PPTase). Biochemical Sfp PPTase activity, qHTS. hit rate 3.5% among 310,000. 4'-phosphopantetheinyl transferase ffp (Bacillus subtilis), Q9F4F7. Potency, µM, for the others: max response, negative = inhibition, hits mostly inhibitors. AID 1490, 2009; active = well fitted inhibition curve with a large enough effect; inconclusive = small, poorly fitted or top-dose-only effect, or another doubt; inactive = no such curve, though single readings can be large or run the other way;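 note: the enzyme is Sfp with the accession as filed and its product quenches rhodamine fluorescence; potency is the fitted concentration of half-maximal effect; 0% = enzyme reaction without inhibitor and -100% = no enzyme wells; top concentration of the series not given in the record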
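Buffer: 50 mM Hepes-Na pH 7.6, 10 mM MgCl2, 0.01% Nonidet P-40, 0.01% BSA. Enzyme 15 nM, pre-exposed to compound 15 min; substrates then added and fluorescence change tracked over 30 min.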
PINK1 modulator: A Quantitative High throughput Screen to Identify Chemical Modulators of PINK1 Expression | PINK1 immunofluorescence, high-content cytometry, 24 h | Potency, µM (highest dose often 76.6 µM), inactives show at the highest dose activation (PINK1 increase), most hits filed as activators | hit rate 0.2% among 410,000 | AID 624263, 2012; active = well fitted activation curve with a large enough effect; inconclusive = small, poorly fitted or top-dose-only effect; inactive = flat fitted curve, though single readings scatter; cell line not stated here;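 note: potency is the fitted concentration of half-maximal effect; % of control where 0% means no effect; nearly all actives have a fitted effect of over 65% in size; a mitochondrial uncoupler was the plate control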
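Stable cell line, 250 cells/well, 12 h attachment; compounds pinned at 5 concentrations, 24 h; CCCP control. Fixed with nuclear dye, primary antibodies 12 h at 10 degrees C, secondary plus cell stain; laser-scanning cytometer read.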
* hit, by the source's call; ? = inconclusive; · = no result given; & = joins results of further samples; [ ] = another dose, or the depositor's remark.

SMILES	gsp ag	gsp antag	ClpP mod	D2 agonist	Menin-MLL FL inh	Sfp PPTase inh	PINK1 modulator
O=C(NCc1ccncc1)C1CCN(S(=O)(=O)c2ccc(Cl)c(C(F)(F)F)c2)CC1	6%	-6%	-0.9%	4.9	·	·	7.0%
Cc1ccc(OCCSc2nc3ccccc3n2CCC(=O)O)cc1	6%	?	-1.7%&2.6%	-3.1	0.3	23%	1.0%&0.4%
CCCS(=O)(=O)N1CCCC(C(=O)NCCCN2CCCC2=O)C1 (stereo unspecified)	-7%	8%	-1.5%	-1.5	4.9	3%	-0.4%
CN(C)CCCN(C(=O)c1ccc(S(=O)(=O)N(C)C)cc1)c1nc2cc3c(cc2s1)OCO3	-125%[inhibitor]	8%	·	-4.7	-0.1	-1%	-0.9%
Cc1c(Cl)cccc1NC(=S)N(Cc1cccs1)C1CCCC1	-10%[15.4 µM]	-6%	0.5%	4.7	-3.1	1%	-0.9%
Cc1ccc(NC2=NCC(=O)N2C2CCCC2)cc1	?	9%	·	-1.4	-5.2	-1%	2.9%
O=C(CCCc1cccs1)N1CCN(S(=O)(=O)c2ccccc2Br)CC1	-26%	-8%	-1.4%	-1.5	2.5	10%	-1.0%
Cc1ccccc1C(=O)Nc1nnc([C@@H]2C[C@H](O)[C@@H](CO)O2)s1	·	·	-4.2%	-7.2	·	·	-0.9%
Nc1ccc(NC(=O)c2cccs2)c(Cl)c1	-24%	2%	-1.3%	0.6	0.6	13%	10%[38.3 µM]
Cc1c(NC(=O)COC(=O)CCC(=O)c2ccc(Cl)cc2)c(=O)n(-c2ccccc2)n1C	18%[15.4 µM]	0%	·	0.1	0.8	5%	-0.6%
CCN1CCN(CCC(=O)Nc2ccc(F)c(F)c2)CC1	13%[15.4 µM]	-6%	0.4%	1.4	-0.4	9%	-0.2%
COc1cccc(C2c3[nH]c4ccccc4c3CCN2C(=O)c2ccccc2F)c1OC (stereo unspecified)	-27%	-26%	-1.9%	-1.6	7.4	-22%	-1.8%
O=P1(NC2CCCCC2)OCC2(CO1)COP(=O)(NC1CCCCC1)OC2 (stereo unspecified)	9%	11%	·	0.7	·	·	0.2%
COc1ccccc1CNC(=O)c1nn(C)c2c1CS(=O)(=O)c1ccccc1-2	2%	2%	-4.8%	0.4	-2.8	2%	2.8%
Cc1occc1-c1nnc(SCC(=O)N(C)c2ccccc2)n1C	?	8%	-6.3%	-1.6	·	·	-1.4%
O=c1[nH]cnc2scc(-c3ccsc3)c12	24%	7%	-8.1%	-13	0.4	-3%	-1.3%
CC(C)CCOCc1nc2sc3c(c2c(=O)[nH]1)CCC(C)C3 (stereo unspecified)	-28%	3%	-6.7%	1.0	4.7	-7%	0.6%[38.3 µM]
O=C(/C=C/c1ccccc1)N1CCC(c2ccccc2)C1 (stereo unspecified)	-32%[inhibitor]	-5%	-2.7%	2.6	0.7	2%	0.7%
CC1CCCC1/C(=N/O)c1ccccc1 (stereo unspecified)	19%	1%	0.1%	3.1	-4.3	-7%	2.0%
CC1CCC2(CC1)NC(=O)N(CC(=O)N1CCN(S(=O)(=O)c3ccccc3)CC1)C2=O (stereo unspecified)	1%	-7%	·	1.1	-3.1	12%	-1.5%
O=C(CCS(=O)(=O)Cc1ccccc1)N1CCN(c2ccc([N+](=O)[O-])cc2)CC1	-12%	?	-0.9%	1.6	-1.9	15%	-0.1%
CCOC(=O)/C(N=Nc1c(Br)cc(Br)cc1Br)=C(\C)O	7%	-13%	-1.7%	-1.7	0.0	-5%	3.8%
O=C(Nc1ccc(Br)cc1)N1CCc2ccccc2C1	29%	-15%	-0.4%	-3.8	-1.9	4%	26%
COc1cccc(CC(=O)OCC(=O)N2CCN(c3ccc(F)cc3)CC2)c1	-31%	8%	-0.6%	-1.7	-3.8	0%	-1.2%
O=C(O)C1C2CCC(C2)C1C(=O)NCc1ccccn1 (stereo unspecified)	8%	3%	1.6%	-0.6	-10	-13%	-0.6%
CC(C)(C)OC(=O)NNC(=O)C12CC3CC(CC(C3)C1)C2	6%[15.4 µM]	-2%	-1.0%	1.1	3.0	6%	-1.1%
COc1ccc(Cl)cc1NS(=O)(=O)c1cccc(C(=O)NCC(c2ccco2)N(C)C)c1 (stereo unspecified)	18%[15.4 µM]	-17%	-1.6%	-2.9	·	13%	0.4%
CCCCNC(=O)c1cc2n(n1)C(C(F)(F)F)CC(c1ccccc1)N2 (stereo unspecified)	3%	6%	-0.5%	5.0	-0.4	15%	?
Cc1cc(N2C(=O)C(O)=C(C(=O)c3cc4ccccc4o3)C2c2ccc(Br)cc2)no1 (stereo unspecified)	3.5µM*	-4%	-1.7%	-0.7	·	-4%	0.9%
COC(=O)c1ccccc1NC(=O)Nc1ccc(Br)cn1	1%[15.4 µM]	·	·	-3.4	0.2	14%	-0.3%
CCOC(=O)C1=C(c2ccccc2)NC(=S)NC1C (stereo unspecified)	1%[15.4 µM]	-2%	-0.4%	-1.2	4.6	3%	0.7%
CCOC(=O)C(=O)Nc1nnc(CCc2ccccc2)s1	22%	-8%	0.7%	-2.4	2.6	20%	-0.3%
O=C(CSc1nnc(-c2ccco2)o1)Nc1cccc([N+](=O)[O-])c1	-38%[inhibitor]	-11%	-0.4%	-3.1	5.3	-11%	1.6%
COC(=O)N1CCCCC1c1cc(C(=O)NCc2ccc(F)cc2)no1 (stereo unspecified)	·	·	0.9%	1.4	·	·	2.7%
CN1CCN(c2ccc(Cl)cc2NC(=O)CN2C(=O)NC(C)(c3ccccc3)C2=O)CC1 (stereo unspecified)	-18%	19%	1.5%	-2.1	·	·	6.2%
CCC(=O)Nc1nc2ccccc2n1Cc1ccccc1	1%	-1%	-0.8%	1.8	-2.9	24%	16%[38.3 µM]
Cc1ccc(Cl)cc1NC(=O)CSc1nnc(C)n1-c1ccccc1	-36%[inhibitor]	0%	0.7%	1.3	-1.4	8%	-0.2%[38.3 µM]
CCOC(=O)c1c(-c2ccccc2)csc1NC(=O)CSc1nnnn1C	5%	-15%	-2.4%	-2.1	4.5	-16%	6.3%[38.3 µM]
COc1ccc(/C=C2\SC(=O)N(CCNC(=O)C3CSC4(C)CCC(=O)N34)C2=O)cc1 (stereo unspecified)	-4%[15.4 µM]	-4%	0.1%	-1.3	·	·	0.5%
CS(=O)Cc1cc(Sc2ccccc2)nc(-c2ccncc2)n1 (stereo unspecified)	9%[15.4 µM]	4%	·	-7.2	-0.1	17%	-0.2%
Cc1cc(C)cc(C(=O)OCC(=O)N2CCCC2)c1	14%[15.4 µM]	3%	·	-4.8	0.6	9%	5.5%
CCOc1ccccc1NC(=O)CN(C)S(=O)(=O)c1ccc2[nH]c(=O)oc2c1	22%	12%	-2.2%	-4.4	·	1%	-1.3%
NC(=O)c1ccc(NC(=O)COC(=O)/C=C/c2ccc3c(c2)OCO3)cc1	?	-4%	3.5%	-2.7	5.3	-9%	1.4%
COc1ccc(/C=c2\sc3nc(-c4ccccc4OC)nn3c2=O)c(OC)c1	20%	-3%	-3.8%	-0.7	4.1	-5%	2.0%
O=[N+]([O-])c1cc2c(cc1CN1CCN(c3ccccc3)CC1)OCO2	-22%	4%	-5.0%	3.0	7.9	-11%	0.5%
N#C/C(=C/c1ccc(N2CCCCC2)o1)c1cccc(F)c1	2%	10%	1.0%	-0.5	?	2.8µM*	7.1µM*
CCN=C1S/C(=C\c2cn(CC(=O)NCc3ccco3)c3ccccc23)C(=O)N1CC	?	1%	·	-4.4	17	?	-0.1%
CC(=O)Nc1nnc(-c2ccc3c(c2)CCCC3)o1	-29%	-2%	-16%	-0.1	0.4	5%	-0.4%
CC(=O)NC(Cc1ccccc1)C(=O)N1CCN(C(=S)NCC(C)C)CC1 (stereo unspecified)	-1%	-3%	1.9%	6.6	-2.3	19%	0.8%
C[C@@H]1CCCCO[C@H](CN(C)S(=O)(=O)c2cccs2)[C@H](C)CN([C@@H](C)CO)C(=O)c2cc(NC(=O)NC3CCCCC3)ccc2O1	7%	·	-13%	-4.5	·	·	-0.8%
COCCNC(=O)c1ccc(CS(=O)(=O)c2ccccc2)o1	-60%[inhibitor]	6%	1.1%	-3.6	0.6	3%	-0.7%
COc1ccccc1CNc1nc2cc(-c3ccsc3)sc2c(=O)n1C	·	·	?	4.6	·	·	-0.9%
O=c1c2cnn(-c3ccc(F)cc3)c2ncn1Cc1ccc(F)cc1	-31%[inhibitor]	-7%	-12%&-18%	0.2	2.7	5%	0.0%&5.0%
COc1ccc(-c2sc3ccc(OC)cc3c2-c2ccc(O)cc2)cc1	·	?	28µM*	-0.3	·	·	-0.1%
COc1cccc(NC(=O)CN2C(=O)COc3ccc(C)cc32)c1	-44%[inhibitor]	3%	·	6.6	0.2	-5%	4.1%
O=C(NCc1cccnc1)Nc1cccc(F)c1	22%	52%[activator]	0.5%	0.0	-8.3	11%	1.5%

Entries above containing a COOH group (two):
SMILES	gsp ag	gsp antag	ClpP mod	D2 agonist	Menin-MLL FL inh	Sfp PPTase inh	PINK1 modulator
Cc1ccc(OCCSc2nc3ccccc3n2CCC(=O)O)cc1	6%	?	-1.7%&2.6%	-3.1	0.3	23%	1.0%&0.4%
O=C(O)C1C2CCC(C2)C1C(=O)NCc1ccccn1 (stereo unspecified)	8%	3%	1.6%	-0.6	-10	-13%	-0.6%
